# ClpP mod = qHTS Assay for Activators of ClpP | Potency, µM (doses to about 57.5 µM), without a hit: top-dose activity change, negative = active | ATP-dependent Clp protease proteolytic subunit (Bacillus subtilis (strain 168)), P80244 | AID 651965, 2013 | purified B. subtilis ClpP, FRET peptide cleavage, 20 min | 1.9% of 340,000 active; active = well fitted falling curve with a large enough effect; inconclusive = small, poorly fitted or top-dose-only effect; inactive = no such curve, though single readings can be large or run the other way; also: potency is read from the fitted curve at half-maximal effect; the source files actives as falling curves though it sought activators and does not explain the sign; nearly all actives have a fitted effect of over 65% in size; many hits overshoot -100%
# Target sequence (P80244 whole entry, looked up): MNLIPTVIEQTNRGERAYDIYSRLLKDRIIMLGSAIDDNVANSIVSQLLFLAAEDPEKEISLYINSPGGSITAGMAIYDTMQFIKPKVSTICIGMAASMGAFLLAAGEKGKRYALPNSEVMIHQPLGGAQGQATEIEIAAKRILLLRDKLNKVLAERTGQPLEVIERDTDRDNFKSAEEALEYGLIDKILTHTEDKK
#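 Buffer: 100 mM Tris/HCl pH8, 100 mM KCl, 0.05% low protease BSA, 2.5% glycerol, 0.01% Tween-20. ClpP 10 microg/mL final; 20 min RT; delta FRET normalized to ADEP and DMSO controls.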
# Menin MLL FP FL = qHTS Assay for Inhibitors Targeting the Menin-MLL Interaction in MLL Related Leukemias: Competition With Fluorescein Labeled MLL-derived Peptide; Fluorescence polarization, fluorescein-MLL peptide displacement from menin; AID 1766, 2009; 290,000 tested, under 10 active; FP activity change, % at 61.4 µM; inconclusive = falling polarisation curve, or a change in total fluorescence; inactive = total fluorescence flat and polarisation flat or rising; no compound was filed as active; the % refers to the polarisation; negative = inhibition;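 also: % of control where 0% means no effect; inhibitors lower the polarisation; unlabelled MLL peptide was the positive control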
# TRPV1 potentiator = HTS Assay for Compounds that Act as Potentiators of the Vanilloid Receptor 1; Transient receptor potential cation channel subfamily V member 1 (Homo sapiens), Q8NER1; TRPV1-expressing cells, Fluo-8 calcium influx, capsaicin EC20 potentiation; host cell line not named in the record; control for the full effect not named in the record; potentiation, % at 8.33 µM; 0.02% of 320,000 active; AID 540277, 2011; active means potentiation above 80%; inconclusive means 30% to 80%; inactive means below 30%; also: 0% is about no effect
#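 Fluo-8 calcium influx in TRPV1-expressing cells, kinetic read (ex 480/em 520 nm). Compound added and read 3 min for agonist activity, followed by capsaicin at EC20 final and 2 min further read for enhancement.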
# Sfp inh = qHTS Assay for Inhibitors of Bacillus subtilis Sfp phosphopantetheinyl transferase (PPTase) | Biochemical Sfp PPTase activity, qHTS | Potency, µM, for inactives: max response, negative = inhibition, hits mostly inhibitors | 3.5% of 310,000 active; active = well fitted inhibition curve with a large enough effect; inconclusive = small, poorly fitted or top-dose-only effect, or another doubt; inactive = no such curve, though single readings can be large or run the other way;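 also: the enzyme is Sfp with the accession as filed and its product quenches rhodamine fluorescence; potency is read from the fitted curve at half-maximal effect; 0% = enzyme reaction without inhibitor and -100% = no enzyme wells; top concentration of the series not given in the record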
#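 Step 1, compound plus 15 nM Sfp-PPTase, 15 min, room temperature. Step 2, add rhodamine-CoA (5 uM) and BHQ-2-YbbR (12.5 uM). Step 3, read 525/598 nm fluorescence at 0 and 30 min.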
# gsp agonist = qHTS for Agonist of gsp, the Etiologic Mutation Responsible for Fibrous Dysplasia/McCune-Albright Syndrome: qHTS | gsp mutant cells, cAMP HTRF, 30 min; control for the full effect not named in the record | Potency, µM (doses to about 76.9 µM), for the others: at the top dose activation (cAMP increase), actives largely listed as activators | 0.13% of 340,000 active; active = well fitted activation curve with a large enough effect; inconclusive = small, poorly fitted or top-dose-only effect, or another doubt; inactive = no such curve, though single readings can be large or run the other way; cell line not stated here;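 also: phosphodiesterase inhibitor Ro 20-1724 added with compounds to block cAMP breakdown; potency is read from the fitted curve at half-maximal effect; nearly all actives have a fitted effect of over 60% in size; about a fifth of the inactives were tested at one dose only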
#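 Cells in DMEM/10% FBS with G418 were pretreated with compounds in DMSO plus […] (300 uM stock) for 30 min at 37C. cAMP was measured by HTRF (cAMP-d2 plus anti-cAMP antibody-K) after 30 min at room temperature.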
# gsp antagonist = qHTS for Antagonists of gsp, the Etiologic Mutation Responsible for Fibrous Dysplasia/McCune-Albright Syndrome: qHTS; gsp-mutant cells, cAMP HTRF, 30 min; control for the full effect not named in the record; Potency, µM (top dose mostly 76.9 µM), inactives show at the top dose activity change, negative = inhibition, hits mostly inhibitors; AID 624288, 2012; 0.4% of 340,000 active; active = falling curve of any shape with a large fitted effect; inconclusive = falling curve, mostly with a smaller effect; inactive = flat or rising curve; cell line not stated here;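 also: intracellular cAMP measured with PDE inhibitor Ro 20-1724 present during compound exposure; potency is read from the fitted curve at half-maximal effect; % is scaled to controls: 0 for no effect and ±100 for the full control effect; nearly all actives have a fitted effect of over 65% in size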
#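 HTRF cAMP measurement after 30 min RT detection following 30 min, 37C compound treatment alongside […] (added as 300 uM solution) in G418-selected cells seeded at 2000/well and grown 16–24 h.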
# TRPML1 inh = qHTS for Inhibitors of the Human Mucolipin Transient Receptor Potential 1 (TRPML1). Mucolipin-1 (Homo sapiens), Q9GZU1. TRPML1-inducible cells, Ca2+ dye fluorescence, FDSS; active compounds read low; inhibition of EC80 agonist-evoked calcium signal. activity change, negative = inhibition, % (concentration not given with the values). 0.02% of 390,000 active; in the data active means activity change below about -50%; inconclusive means about -30% to -50%; inactive means above about -30%;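 also: stimulus is agonist 54-4 at its EC80 concentration; % is scaled to controls: 0 for no effect and ±100 for the full control effect; the text of the record puts the active cut at -80%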
# Target sequence (Q9GZU1 whole entry, looked up): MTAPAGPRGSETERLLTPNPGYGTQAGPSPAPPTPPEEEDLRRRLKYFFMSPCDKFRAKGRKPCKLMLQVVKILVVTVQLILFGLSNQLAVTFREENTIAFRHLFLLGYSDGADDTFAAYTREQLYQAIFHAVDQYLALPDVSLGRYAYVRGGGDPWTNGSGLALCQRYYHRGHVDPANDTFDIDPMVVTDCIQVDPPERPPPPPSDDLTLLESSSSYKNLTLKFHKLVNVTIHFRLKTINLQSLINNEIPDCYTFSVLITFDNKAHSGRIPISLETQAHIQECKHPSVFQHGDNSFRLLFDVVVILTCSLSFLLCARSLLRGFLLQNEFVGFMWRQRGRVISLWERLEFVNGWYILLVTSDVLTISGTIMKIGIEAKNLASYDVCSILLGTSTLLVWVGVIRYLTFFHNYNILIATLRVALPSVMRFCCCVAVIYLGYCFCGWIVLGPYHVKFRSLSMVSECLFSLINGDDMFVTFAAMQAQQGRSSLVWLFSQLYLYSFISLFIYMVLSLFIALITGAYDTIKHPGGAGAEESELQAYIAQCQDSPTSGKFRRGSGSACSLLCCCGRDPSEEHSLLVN
#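 TRPML1-DL cells, Tet-induced overnight (~16 h, 37 °C) at 1,500 cells/well, were loaded with Ca8 no-wash dye plus quencher for 45-90 min at room temperature. Compounds were pinned during FDSS kinetic reading; agonist 54-4 at EC80 (4 uM final) then added.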
# An asterisk follows results filed as active; ? = inconclusive; · = not tested or not shown; [ ] = remark or other dose.
SMILES,ClpP mod,Menin MLL FP FL,TRPV1 potentiator,Sfp inh,gsp agonist,gsp antagonist,TRPML1 inh
Cc1ccc(-c2nc3ccccc3[nH]2)cc1NC(=O)c1sc2cc(Cl)ccc2c1Cl,-22.7%,2.2,-0.6,15.1%,9.8%,-7.4%,30.7
CC(=O)c1c(C)[nH]c(C(=O)N(C)CC(=O)Nc2ccc(Cl)c(C(F)(F)F)c2)c1C,-0.1%,·,-0.6,17.5%,?,-12.3%,-15.2
O=C(NNc1ccccc1[N+](=O)[O-])Nc1cccc(Cl)c1,-0.8%,0.6,7.0,-11.4%,-2.7%,5.4%,34.4
CCOc1ccccc1N(CC(=O)N(C)Cc1ccccc1)S(=O)(=O)c1ccccc1,-0.7%,·,28.4,19.8%,-3.3%,-24.3%,22.3
COC(=O)c1ccc(Cn2nc(C)c(Br)c2C)cc1,3.3%,4.8,-3.5,-5.2%,-0.2%,8.2%,-0.8
Nc1nc(=S)[nH]c2c1C1(CCCC1)Cc1ccccc1-2,-11.6%,2.9,6.5,28.2%,9.9%,16.3%,-11.3
CCC1(CC)NC(=O)N(CC(=O)OCC(=O)NC(=O)c2ccccc2)C1=O,-0.9%,-6.5,?,14.6%,6.4%[15.4 µM],-6.9%,0.4
O=C(NCc1ccco1)c1cccc(S(=O)(=O)N2CCOCC2)c1,0.4%,-1.5,26.8,-10.6%,-3.5%,-16.7%,4.1
O=C(O)c1cccc(N=NN2CCOCC2)c1,·,-1.6,-2.5,6.7%,-3.0%[15.4 µM],7.1%,29.0
O=C(CN1CCOCC1)N/N=C/C=C/c1ccccc1,·,1.2,3.2,14.9%,10.3%[15.4 µM],0.7%,-11.7
COc1ccc(/C=N\NC(=O)c2sccc2C)cc1Cn1nc(C)cc1C,-5.1%,·,11.6,0.5%,-0.5%,-17.7%,13.0
S=C(Nc1ccccc1)Nc1cc(Cl)ccc1Oc1ccccc1,3.3%,-1.2,-11.4,5.9%,-8.3%,-4.7%,11.7
O=C(Nc1oc2ccccc2c(=O)c1-c1ccc2c(c1)OCO2)c1ccco1,-3.0%,·,·,·,-86.2%[inhibitor],·,-13.1
CCC(C)NC(=O)Cn1nc(C(F)(F)F)c2c1CCC2 (stereo not drawn),·,6.4,-12.6,-0.6%,-47.0%,19.6%,7.5
NC(=O)CC(NC(=O)c1ccccc1)c1ccc(NCCc2ccc(F)cc2)c([N+](=O)[O-])c1 (stereo not drawn),1.7%,-0.9,-7.0,-0.9%,-46.6%[inhibitor],3.5%,2.6
O=C(Cc1ccccc1)N1CCCC(c2nc(-c3cccs3)no2)C1 (stereo not drawn),1.5%,-6.0,-11.7,13.8%,-6.0%,3.2%,-21.2
CCC(=O)Nc1ccc(C(=O)NNC(=O)C(c2ccccc2)c2ccccc2)cc1,-2.0%,0.5,-9.1,11.1%,0.9%,-12.7%,12.1
Cc1ccc(C(C(=O)NC(C)(C)C)N(CC2CCCO2)C(=O)c2csnn2)cc1 (stereo not drawn),·,5.8,-2.4,8.2%,-49.4%[inhibitor],9.6%,2.9
CC12CCC(=O)C=C1CCC1C2CCC2(C)C1CC1C3C(=O)N(Cc4ccccc4)C(=O)C3CC(=O)C12 (stereo not drawn),·,·,·,·,-5.8%,-20.6%,12.5
C=C(Cl)COC(=O)[C@H]1C2C=CC(C2)C1C(=O)O (stereo partly drawn),-0.3%,0.1,?,-8.6%,-46.8%[inhibitor],2.2%,-0.4
O=C(C1CC1)N1CCc2cc(S(=O)(=O)N3CCN(c4ccccc4)CC3)ccc21,0.6%,·,-4.6,11.0%,0.8%,-7.7%,1.5
CC1CCCC(C)N1C(=O)C1CCCCC1 (stereo not drawn),1.0%,3.8,-1.6,21.6%,3.6%,11.2%,-12.2
CC(C)c1ccc(/C=N/n2c(COc3ccccc3)n[nH]c2=S)cc1,·,3.9,6.2,-21.7%,26.4%,?,-23.4
O=C(c1ccc(F)cc1)N(Cc1cccs1)C1CCS(=O)(=O)C1 (stereo not drawn),-0.7%,·,15.6,10.8%,-7.5%,-6.6%,-5.4
Cc1nn(C)c(C)c1N=Cc1c(O)ccc2ccccc12,-0.4%,?,-2.0,-24.5%,-38.6%[inhibitor],-13.6%,24.9

# The results go on.
SMILES,ClpP mod,Menin MLL FP FL,TRPV1 potentiator,Sfp inh,gsp agonist,gsp antagonist,TRPML1 inh
CCOc1c(Cl)cc(/C=C/C(=O)N(CC)CC(=O)Nc2ccc(NC(C)=O)cc2)cc1OC,-24.0%,·,-8.7,·,2.9%,6.3%,-17.3
O=C1C2C3C=CC(C3)C2C(=O)N1c1ccc(Cc2ccncc2)cc1 (stereo not drawn),-2.4%,-2.2,5.7,9.7%,-10.2%,-9.2%,0.5
CCOC(=O)N1CCC(N2Cc3cccc(C(=O)Nc4ccc(CC)cc4)c3C2=O)CC1,-3.3%,2.2,1.3,-8.7%,2.2%,-7.8%,11.0
CCn1c2ccccc2c2nnc(SCC(=O)NC(CC(C)C)C(=O)OC)nc21 (stereo not drawn),-0.2%,0.6,1.5,-5.6%,7.4%,-3.2%,-0.8
Cc1cccc(NC(=O)NNC(=O)c2ccc3ccccc3c2O)c1,4.3%,2.6,10.2,21.7%,28.9%,-2.7%,4.5
COc1ccc(NC(=S)NCCSc2ccc(Cl)cc2)c(OC)c1,0.9%,-0.1,10.5,?,21.8%,20.1%,-3.9
Cn1cnnc1SCC(=O)NN1C(=O)NC(C)(c2ccccc2)C1=O (stereo not drawn),-1.4%,4.4,7.0,4.7%,-0.6%,4.1%,-18.4
O=C(CSc1nc2ccccc2[nH]1)N=Nc1c(O)[nH]c2ccccc12,-8.8%,-1.2,6.2,-11.1%,-29.9%,0.1%,-16.4
Cc1nc2nc(-c3ccco3)[nH]n2c(=O)c1C,-24.0%,1.1,10.4,-5.5%,?,2.7%,-10.6
CCc1nn(CC(=O)NCCCN(CC)Cc2ccccc2)c(=O)c2cc3sccc3n12,-28.3%,4.8,2.3,-1.4%,-0.5%,2.0%,-9.6
COc1cccc2sc3ccc(NCCC4CCCN4C)cc3c(=O)c12 (stereo not drawn),-4.6%,?,?,-13.0%,·,-0.9%,-0.7
O=C1c2ccccc2NC(c2cccc(F)c2)N1Cc1ccco1 (stereo not drawn),17.8µM*,4.4,15.5,-19.4%,-56.4%[inhibitor],-14.7%,-14.1
Cc1cc(C)nc(NC(=O)c2c(-c3ccccc3Cl)noc2C)c1,-1.7%,2.4,-13.8,-7.4%,-21.1%,-5.3%,11.7
CCOc1ccccc1NC(=O)c1ccc2c(=O)n3c(nc2c1)CCCCC3,-1.4%,3.2,-3.6,6.3%,33.1%,-10.8%,-5.5
O=C(c1ccc(-c2cccc(C(F)(F)F)c2)o1)N1CCCC(C(F)(F)F)C1 (stereo not drawn),·,·,-6.3,·,2.3%[15.4 µM],-16.4%,8.7
CC/C(=N/Nc1ccccc1Cl)c1cnnc(-c2ccccc2)n1,-0.8%,-0.7,-0.8,10.5%,-43.6%[inhibitor],-2.5%,4.7
O=C(NCC(c1ccco1)N1CCc2ccccc2C1)c1ccc(Br)cc1 (stereo not drawn),25.1µM*,·,-15.4,·,14.4%[15.4 µM],-5.4%,-8.3
CCCOCc1ccc(O)c2ncccc12,·,-0.8,6.3,24.2%,29.6%,8.5%,-5.1
COc1ccc(NC(=O)CSc2nc3c([nH]c4ccccc43)c(=O)n2C)c(OC)c1,-10.5%,·,12.5,11.3%,19.2%,0.6%,31.1
COC(=O)Nc1ncc(CN2CCc3ccccc3C2)s1,2.0%,-2.2,0.4,13.3%,6.7%,3.1%,3.1
CCc1nnc(NC(=O)CSc2nc3cc4c(cc3cc2CC)OCCO4)s1,0.1%,0.2,16.8,-8.6%,41.5%,43.0%[activator],-4.2
O=C(COc1ncnc2sccc12)N1CCc2ccccc2C1,-2.1%,1.8,?,8.6%,15.0%,9.2%,21.1
CCOC(=O)C(NC(=O)Nc1ccc(F)cc1)(OCC)C(F)(F)F (stereo not drawn),1.0%,3.2,-0.2,8.2%,-65.1%[inhibitor],5.9%,7.6
COc1ccc(C(=O)Nc2cc(OC)c(Cl)cc2OC)cc1,-0.3%,-0.5,-12.6,7.2%,14.9%,?,-9.1
CCc1nnc(NC(=O)c2cccc(S(=O)(=O)N3CCN(C(C)=O)CC3)c2)s1,-1.7%,·,-3.8,·,20.5%,-6.0%,11.1
C/C(=N\NC(=O)c1ccc(NS(=O)(=O)c2cccs2)cc1)c1ccc(Cl)cc1,-1.8%,7.2,0.3,-3.6%,0.0%[15.4 µM],?,9.8
COCCN(C(=O)COC(=O)CCc1nc2ccccc2s1)c1c(N)n(Cc2ccccc2)c(=O)[nH]c1=O,?,-0.1,4.9,6.5%,10.3%[15.4 µM],7.7%,24.2
O=C1C=C(c2ccc3ncccc3c2)C[C@@H](c2ccc(F)cc2)C1,-1.4%,·,-9.8,·,-3.6%,-6.4%,7.5
C=C(C)CSc1nc2ncc(Cl)cc2[nH]1,-0.9%,2.3,22.1,16.6%,27.6%,-4.5%,-4.4
O=C(CN1CCCCCC1)Nc1ccccc1OC(F)F,·,-2.6,-13.4,1.4%,-1.8%[15.4 µM],-5.8%,-17.9

# High-throughput results from PubChem BioAssay.

# Hits appear at their usual frequency, and some 4.9% of all compounds hit somewhere here.
